# Bioassay records (PubChem BioAssay)
# PV pol inh = poliovirus RNA polymerase inhibition; poliovirus polymerase elongation, fluorescence polarization; hits give low values; % elongation, % (compound at 16.7 µg/mL); actives 0.66% (n = 150,000); AID 588519; in the data active means % elongation below about 90%; further: some results filed as inactive read as strong as hits
# Target sequence (P03300 1749-2209 limits assumed): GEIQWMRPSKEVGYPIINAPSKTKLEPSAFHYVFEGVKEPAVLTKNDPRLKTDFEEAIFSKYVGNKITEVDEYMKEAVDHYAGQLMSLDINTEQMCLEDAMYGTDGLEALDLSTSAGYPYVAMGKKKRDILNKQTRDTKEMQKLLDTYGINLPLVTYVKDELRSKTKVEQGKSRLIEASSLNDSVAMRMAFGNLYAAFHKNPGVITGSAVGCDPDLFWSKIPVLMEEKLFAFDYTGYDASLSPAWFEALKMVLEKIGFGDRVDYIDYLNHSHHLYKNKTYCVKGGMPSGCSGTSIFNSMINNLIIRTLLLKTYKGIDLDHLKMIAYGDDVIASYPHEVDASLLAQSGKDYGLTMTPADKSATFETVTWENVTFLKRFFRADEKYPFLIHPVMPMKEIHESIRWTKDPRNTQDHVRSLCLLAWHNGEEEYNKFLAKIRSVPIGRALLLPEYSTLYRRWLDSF
# PV pol inh intensity = recorded beside PV pol inh, whose call it bears; % elongation; measured here: total intensity read-out; formula for this scale not given here;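 total fluorescence in place of polarization; lower means less elongation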
# Numbers without * were called inactive.
Structure	PV pol inh intensity	PV pol inh
Cc1nn(C)c(C)c1S(=O)(=O)N(CC(=O)NCCc1ccc(Cl)cc1)c1ccc(C(C)C)cc1	106	106
O=C(Nc1ccc(F)cc1F)C1CCN(C(=O)c2cnn(-c3ccccc3)c2-n2cccc2)CC1	104	109
Cc1ccc(S(=O)(=O)Nc2ccc(-c3ccc(N4CCCCCC4)nn3)cc2)cc1C	98	103
CCOCCCNC(=O)c1ccc2c(=O)n(CCc3ccccc3)c(=O)[nH]c2c1	111	105
COc1ccc(CNS(=O)(=O)c2ccc3c(c2)C(C)(C)C(=O)N3C)cc1OC	118	114
CCn1c(=O)c2cc(C(=O)N(CCN(C)C)Cc3ccccc3)sc2c2ccccc21	91*	87*
Cc1cccc(C(=O)Nc2ccc(N3CCC(CCN4CCOCC4)CC3)c(C(=O)O)c2)c1	107	103
CCOC(=O)C1(C)C=C(Nc2ccc(Br)cc2)C(=O)N1c1ccccc1 (stereo not given)	118	116
CC(=O)N1CCCc2cc(S(=O)(=O)N3CCC(C(=O)NCc4ccccc4Cl)CC3)ccc21	94	108
CCN(CC)S(=O)(=O)c1ccc(NC(=O)c2c(C)oc3ncnc(N4CCOCC4)c23)cc1	114	112
Cc1cccc(NC(=O)Cn2nnc(C(=O)Nc3ccccc3Br)c2N)c1C	104	116
COc1cccc(CNC(=O)C(C)n2c(=O)cc(-c3ccccc3)c3c(C)nn(C)c32)c1 (stereo not given)	112	104
CCCNC(=O)CCn1nc(-c2ccc(C)cc2)c2ccccc2c1=O	101	100
COc1ccc(C)cc1NC(=O)CN1C(=O)CSc2ccc(S(=O)(=O)N3CCCC3)cc21	110	106
CCOc1ccc(OCC)c(NC(=O)c2cc(-c3cccs3)nc3ccccc23)c1	98	101
CCCCn1c(=O)c2oc3ccccc3c2n(CC(=O)Nc2ccc(CC)cc2)c1=O	114	111
O=C(c1cc(-c2ccc(Br)cc2)n[nH]1)N1CCN(S(=O)(=O)c2ccc(Cl)s2)CC1	113	109
COc1ccc(C(C(=O)NCc2ccccc2)N(C(=O)Cn2nnc3ccccc32)c2ccc(OC)cc2)cc1 (stereo not given)	110	106
COc1ccc(NC(=O)CN(c2ccc(C)cc2)S(=O)(=O)c2cccs2)cc1OC	105	103
CCOc1ccc(NC(=O)CN2C(=O)C(c3ccc(Cl)cc3)=NC2(C)C)cc1	108	109
Cc1cc(C)c(NC(=O)Cn2c(=O)nc(-c3ccccc3)c3cc(Cl)ccc32)c(C)c1	113	105
Cc1ccc(SCC(=O)Nc2ccc3oc(-c4cccc(C)c4)nc3c2)cc1	105	103
CCOc1ccc2nc(NC(=O)c3cccn(Cc4ccc(Cl)cc4)c3=O)sc2c1	113	108
CCOC(=O)C(CC)Sc1ccc2nnc(CCNS(=O)(=O)c3ccc(C)cc3)n2n1 (stereo not given)	110	111
CCS(=O)(=O)N1CC(=O)N(c2cc(C)cc(C)c2)C(C)(C(=O)NC2CCCCC2)C1 (stereo not given)	101	106
CC(=O)c1cccc(NC(=O)c2cc(-c3ccc4c(c3)OCCO4)on2)c1	98	107
O=C(NCc1ccc(F)cc1)c1cc2c(=O)n3ccccc3nc2s1	106	110
CCC1=Nc2cc(C(=O)NCc3ccc(C)cc3)ccc2Sc2ccc(C)cc21	110	106
CCCCSCCCNC(=O)c1cn(C)c2ccc(S(=O)(=O)N3CCCC3)cc2c1=O	99	98
COc1ccc(Cn2c(SCC(=O)N3CCN(c4ccc(F)cc4)CC3)nc3ccccc32)cc1	113	112
COCCCNC(=O)C1CCN(c2cc(C)nc3c(-c4ccc(OC)c(OC)c4)c(C)nn23)CC1	112	109
Cc1ccc(N(CC(=O)NCCc2ccc(Cl)cc2)S(=O)(=O)N(C)C)cc1	109	108
CCc1ccc(-c2[nH]nc3nc(-c4ccc(OC)cc4)cc(C(=O)NCCc4ccc(OC)c(OC)c4)c23)cc1	104	106
CCc1ccc(-n2c(=O)c3c4c(sc3n(CC(=O)NCCCOC)c2=O)CCC4)cc1	105	102
Cc1cc(C)cc(NC(=O)CSc2oc(-c3ccccc3)nc2S(=O)(=O)c2ccccc2)c1	97	101
Cc1ccc(-n2c(SCC(=O)Nc3cccc(C)c3)nc3c(oc4ccccc43)c2=O)cc1	104	107
Cc1ccc(S(=O)(=O)N(CC(=O)Nc2ccc(Cl)cc2Cl)c2ccccc2C)cc1	106	105
COc1cc2c(cc1NC(=O)COc1ccc(Cl)cc1Br)oc1ccccc12	102	101
O=C(CCc1cn(Cc2ccccc2F)c2ccccc12)NCc1ccc(Cl)cc1	107	104
O=C(c1cc2cc3ccc(Cl)cc3nc2o1)N1CCN(c2cccc(Cl)c2)CC1	108	107
Cc1ccc(NC(=O)C2CCN(C(=O)c3sc4nc[nH]c(=O)c4c3C)CC2)cc1F	115	108
CCOC(=O)c1cccc(NC(=O)C(CC(C)C)N2Cc3ccccc3C2=O)c1 (stereo not given)	98	106
Cc1c2cnn(CC(=O)O)c(=O)c2c(C)n1Cc1cccc(Cl)c1	108	110
CCN1CCN(Cc2c(O)ccc3cc(-c4ccc(OC)cc4)c(=O)oc23)CC1	115	105
COc1cc(NS(=O)(=O)c2cc(Br)cc3c2N(C(C)=O)C(C)C3)cc(OC)c1 (stereo not given)	104	100
COc1ccc(NC(=O)Nc2cccc(-c3noc(C)n3)c2)cc1	102	107
Cc1cccc(S(=O)(=O)c2cn(Cc3ccc(F)cc3)c3cc(N4CCOCC4)c(F)cc3c2=O)c1	108	110
CC1CCN(S(=O)(=O)c2ccc3c(c2)N(CC(=O)NCCc2ccccc2)C(=O)CO3)CC1	112	114
Fc1ccc(-n2ncc3c(NCCC4=CCCCC4)ncnc32)cc1	117	112
C=Cc1ccc(Cn2nc(-c3ccc(C)c(S(=O)(=O)N(CC)CC)c3)ccc2=O)cc1	102	106

# Next section:
Structure	PV pol inh intensity	PV pol inh
CCn1ccc2cc(S(=O)(=O)N3CCCN(C(=O)NCC(=O)OC)CC3)ccc21	98	108
Cc1cc(CN2CCN(c3ccc(F)cc3)CC2)cs1	107	101
CC(C)OCCCNC(=O)c1cc2c(-c3ccc(Cl)cc3)nn(C)c2s1	105	104
Cc1cccc(N2CCN(C(=O)c3cc4c(=O)n(C)c5ccccc5c4s3)CC2C)c1 (stereo not given)	109	105
Cc1ccc(C)c(NC(=O)CN2C(=O)c3cccnc3Oc3ccc(C)cc32)c1	105	101
Cc1cc(Br)ccc1NC(=O)C1CCN(S(=O)(=O)c2ccc(Br)s2)CC1	112	111
CCCCOc1ccccc1C1CC(=O)Nc2ccc3ccccc3c21 (stereo not given)	114	113
O=C(Nc1ccc(F)cc1)c1csc2c1CCCCC2	104	98
O=C(CSC1=Nc2ccccc2N=C(c2ccc(F)cc2)C1)Nc1cc(F)ccc1F	111	112
CC(=O)N1CCCc2cc(S(=O)(=O)N(C)CC(=O)Nc3ccc(F)cc3Cl)ccc21	105	105
CCOCCCNC(=O)c1[nH]c2cc(OC)ccc2c1Sc1ccccc1	112	104
O=C(NCc1ccc(Cl)cc1)C(=O)NCC(c1cccs1)S(=O)(=O)c1ccc(Cl)cc1 (stereo not given)	107	105
CC(C)(Oc1ccc(Cl)cc1)C(=O)Nc1ccc(-c2nc3ncccc3o2)cc1	105	104
COc1ccc(S(=O)(=O)c2c(Nc3cccc(C)c3C)sc(C(=O)c3ccccc3)c2N)cc1	112	107
Cc1ccc(Cn2c(CN3CCC(C(=O)NCC(C)c4ccccc4)CC3)cc3ccccc32)cc1 (stereo not given)	101	115
Cc1cc(C)n(CCC(=O)Nc2ccc(Cl)cc2)n1	110	106
CC(=O)Nc1ccc(NS(=O)(=O)c2cc3c4c(c2)CC(=O)N4CCC3)cc1	105	117
CN(C)c1ccc(-c2nc(-c3cccs3)c(-c3cccs3)[nH]2)cc1	93	102
CCC(=O)Oc1c(Sc2ccc(C)cc2)c(C)nn1-c1ccccc1	108	105
CN1CCN(Cc2c(O)ccc3cc(-c4ccccc4)c(=O)oc23)CC1	101	105
O=C(CSc1nc2ccccc2nc1Cc1ccccc1F)Nc1cccc(C(F)(F)F)c1	116	111
Cc1ccc(S(=O)(=O)c2cn(CC(=O)Nc3ccc4c(c3)OCO4)c3ccccc3c2=O)cc1	108	111
O=S(=O)(NCCS(=O)(=O)N1CCN(c2cccc(Cl)c2)CC1)c1ccc(F)cc1	110	107
COc1cc(OC)c(C2CC(=O)Nc3ccc4ccccc4c32)cc1OC (stereo not given)	103	104
COC(=O)c1c(NC(=O)Cc2coc3ccc(C)cc23)sc2c1CCC2	118	117

# Of the compounds above, two contain a COOH group:
Structure	PV pol inh intensity	PV pol inh
Cc1cccc(C(=O)Nc2ccc(N3CCC(CCN4CCOCC4)CC3)c(C(=O)O)c2)c1	107	103
Cc1c2cnn(CC(=O)O)c(=O)c2c(C)n1Cc1cccc(Cl)c1	108	110

# Complete entries as entered above. Screens in order: PV pol inh intensity, PV pol inh
# Record of CC(=O)N1CCCc2cc(S(=O)(=O)N(C)CC(=O)Nc3ccc(F)cc3Cl)ccc21 = 105, 105
# Record of O=C(NCc1ccc(Cl)cc1)C(=O)NCC(c1cccs1)S(=O)(=O)c1ccc(Cl)cc1 (stereo not given) = 107, 105

# Further records follow:
Structure	PV pol inh intensity	PV pol inh
CCCCN1C(=O)C(O)(CC(=O)c2ccc(C)cc2C)c2cc(Br)ccc21 (stereo not given)	104	106
CCCCNC(=O)CCCCCn1c(=O)[nH]c2ccccc2c1=O	103	103
O=C(NCc1cccc(Cl)c1)c1ccc2c(c1)nc1n2CCOC1	115	113
CCC(Sc1nc2nccnc2c(=O)n1Cc1ccccc1Cl)C(=O)NC1CCCCC1 (stereo not given)	114	113
CNC(=O)c1cnc2sc(N3CCCCCC3)nn2c1=O	99	103
CCN(Cc1ccccc1)C(=O)Cn1c(=O)n(Cc2ccccc2)c(=O)c2c1c1cc(OC)ccc1n2C	106	102
CCN(CC)CCOC(=O)c1ccc(Nc2c3c(nc4ccccc24)CCC3)cc1	103	105
CSc1ccc(/C=C/c2nc3ccccc3n2S(=O)(=O)c2cccc(Cl)c2)cc1	106	106
Cc1cc(NC(=O)c2cccn(Cc3ccccc3)c2=O)no1	109	108
O=C(Nc1nnc(SCc2cc(=O)c3ccccc3[nH]2)s1)c1ccccc1	108	112
COc1ccc(Cl)cc1-n1nnc(-c2nc(-c3ccc4c(c3)OCO4)no2)c1C	115	109
COc1ccc(OC)c(NC(=O)CCc2c(C)nn(-c3ccc(N4CCCC4)nn3)c2C)c1	102	116
Nc1nc2nc(-c3ccc(Cl)cc3)cc(C(F)(F)F)n2n1	95	97
CCOc1ccccc1Oc1nc(C)nc2c1oc1ccccc12	100	112
Cn1c(CN2CCCCC2)nc2cc(NC(=O)c3ccccc3Cl)ccc21	106	108
Cc1ccc(OCC(=O)Nc2ccc(-c3nc4ccccc4o3)cc2)c(C)c1	107	107
Cc1nc2nc(CNC(=O)OC(C)(C)C)nn2c(C)c1CCC(=O)NCc1ccccc1Cl	107	107
COc1ccc(CNC(=O)c2ccc(NC(=O)N3CCSc4ncccc43)cc2)cc1	107	107
O=S(=O)(c1ccc2[nH]c3c(c2c1)CCCCC3)N1CCN(c2cccc(Cl)c2)CC1	110	111
NS(=O)(=O)c1ccc(NC(=O)CN2C(=O)COc3ccc(Cl)cc32)cc1	113	106
COc1cc(/C=C/c2nc3ccccc3c(=O)n2-c2ccc(Br)c(C)c2)ccc1O	123	119
Cc1cc(C(=O)NCc2ccccc2)c2c(C)nn(-c3cccc(F)c3)c2n1	109	104
CCOC(=O)Cn1c(=O)n(CC2CCCO2)c2nc(-c3cccc(C)c3)nc(C(N)=O)c21 (stereo not given)	119	111
CN1C(C(=O)c2ccccc2)=C(OC(=O)c2ccc(Br)cc2)c2ccccc2S1(=O)=O	107	106
CCCN1Cc2cccc(C(=O)Nc3ccc(OC)cc3OC)c2C1=O	103	102
COc1ccc(NC(=O)Cn2cnc3ccc(S(=O)(=O)N4CCC(C)CC4)cc3c2=O)c(OC)c1	102	102
COc1ccc(C2=NC(C)(C)N(CC(=O)Nc3cc(OC)cc(OC)c3)C2=O)cc1	107	110
Cc1ccc(N(C)S(=O)(=O)c2ccc3[nH]c(=O)ccc3c2)cc1	106	106
O=C(NCCSc1c[nH]c2ccccc12)c1ccccc1Cl	110	107
CC(=O)C1=C(c2ccc(Cl)c(Cl)c2)N(C(C)=O)n2cnnc2S1	78*	86*
Cn1c(=O)n(C)c2cc(CNCc3ccccc3)ccc21	109	107
Cc1ccc2c(c1)-c1onc(C(=O)N3CCN(c4cc(Cl)ccc4C)CC3)c1CO2	90	106
CSc1cccc(NS(=O)(=O)c2ccc3[nH]cc(C(=O)N4CCCCCC4)c(=O)c3c2)c1	111	112
CCN(CC)S(=O)(=O)c1ccc(C(=O)NCCSc2c(-c3ccc(F)cc3)[nH]c3ccccc23)cc1	109	107
CCOc1ccccc1NC(=O)C(=O)c1cc(C)n(-c2cccc(C)c2C)c1C	108	106
O=S(=O)(Nc1cc(F)ccc1F)c1ccc2[nH]c3c(c2c1)CCCC3	113	108
Cc1ccc(CNC(=O)N2CCC(CN3CCC(C)CC3)CC2)cc1	115	109
Cc1ccc(-c2nc(-c3cc4cccc(OCc5ccccc5F)c4oc3=O)no2)cc1	113	108
COc1ccc2cc(C(=O)NCc3ccc4c(c3)CCN4C(=O)c3ccc(F)cc3)[nH]c2c1	95	104

# Random excerpt: 4 records from the list, in no set order.
Structure	PV pol inh intensity	PV pol inh
Cn1c(=O)n(C)c2cc(CNCc3ccccc3)ccc21	109	107
CC(=O)C1=C(c2ccc(Cl)c(Cl)c2)N(C(C)=O)n2cnnc2S1	78*	86*
COc1ccc2cc(C(=O)NCc3ccc4c(c3)CCN4C(=O)c3ccc(F)cc3)[nH]c2c1	95	104
CSc1cccc(NS(=O)(=O)c2ccc3[nH]cc(C(=O)N4CCCCCC4)c(=O)c3c2)c1	111	112

# A portion of the library; count on the stated rates, not on these rows.
